Screening results: PubChem BioAssay, Broad Institute
FGF22 binding: shifts melting point of recombinant human FGF22; calls only at 9.99 µM; hit rate 1.5% among 340,000; AID 651658; Q9HCT0; recombinant FGF22 thermal shift, SYPRO orange fluorescence; percent of sucrose octasulfate shift, DMSO zero;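 active = melting point raised past a set limit in the mean and every replicate; three in four hits are not shown here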
Target sequence (Q9HCT0 whole entry, looked up): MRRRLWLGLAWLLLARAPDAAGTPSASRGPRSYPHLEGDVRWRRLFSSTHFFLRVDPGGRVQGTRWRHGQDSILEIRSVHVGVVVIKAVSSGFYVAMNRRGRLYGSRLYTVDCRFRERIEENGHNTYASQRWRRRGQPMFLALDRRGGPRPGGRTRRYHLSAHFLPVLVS
Calls only; i = inactive. An excerpt. The share of hits here may be higher or lower than overall.

SMILES	FGF22 binding
COC(=O)C1=C(C)N(Cc2cccc(C(F)(F)F)c2)C(=NCc2ccc3c(c2)OCO3)NC1CCc1ccccc1 (configuration not stated)	i
Nc1[nH]c(C(=O)c2ccc(Br)cc2)c(-c2ccncc2)c1C(=O)c1ccccc1	i
Cc1noc(C)c1NC(=O)Nc1ccc2c(c1)C(=O)N([C@@H](C)CO)C[C@H](C)[C@@H](CN(C)Cc1ccc(C(=O)O)cc1)OCCCC[C@H](C)O2	i
CN1c2ccc(-c3ccccc3F)cc2[C@@H]2[C@@H](CCN2C(=O)Nc2cc(F)ccc2F)[C@@H]1CO	i
Cc1noc(C)c1NC(=O)Nc1ccc2c(c1)C(=O)N([C@H](C)CO)C[C@H](C)[C@H](CN(C)Cc1ccc(C(=O)O)cc1)OCCCC[C@H](C)O2	i
COc1ccc(NC(=O)N(C)C[C@H]2OCCCC[C@H](C)Oc3ccc(NC(=O)c4ccncc4)cc3C(=O)N([C@@H](C)CO)C[C@H]2C)cc1	i
O=C(CC1CC1)Nc1ccc2c(c1)[C@@H]1C[C@@H](CC(=O)N3CCOCC3)O[C@H](CO)[C@@H]1O2	i
O=C(C[C@H]1CC[C@H]2[C@@H](COC[C@H](O)CN2Cc2ccc3c(c2)OCO3)O1)N1CCCCC1	i
CCCNC(=O)C[C@H]1C[C@H]2c3cc(NC(=O)CN(C)C)ccc3O[C@H]2[C@@H](CO)O1	i
O=S(=O)(c1ccccc1F)N1CCCCN2[C@H](CO)[C@@H](c3ccc(-c4cncnc4)cc3)[C@H]2C1	i
C[C@@H]1CCCCO[C@H](CN(C)S(=O)(=O)c2cn(C)cn2)[C@@H](C)CN([C@H](C)CO)C(=O)c2cc(NC(=O)Nc3ccc(C(F)(F)F)cc3)ccc2O1	i
COCCNC(=O)C[C@@H]1C[C@@H]2c3cc(NC(=O)Nc4ccccc4F)ccc3O[C@@H]2[C@H](CO)O1	i
C[C@H](CO)N1C[C@H](C)[C@@H](CN(C)C(=O)Cc2ccccc2)OCCCC[C@H](C)Oc2ccc(NC(=O)CCC(F)(F)F)cc2C1=O	i
COc1ccc(NC(=O)N(C)C[C@H]2OCCCC[C@@H](C)Oc3ccc(NC(=O)Nc4cccc5ccccc45)cc3C(=O)N([C@@H](C)CO)C[C@H]2C)cc1	i
CN1c2ccc(-c3cccc(C#N)c3)cc2[C@H]2[C@H](CCN2C(=O)C2CCC2)[C@H]1CO	i
COCC(=O)Nc1ccc2c(c1)C(=O)N(C)[C@H]1CC[C@@H](CC(=O)OC)O[C@@H]1CO2	i
COC(=O)C[C@H]1CC[C@@H]2[C@H](COc3ccc(NC(=O)c4ccccc4OC)cc3C(=O)N2C)O1	i
Cc1ccc2nc(-c3ccc(CN4CCC(n5cc(-c6ccccc6)[nH]c5=O)CC4)cc3)c(-c3ccccc3)nc2c1	i
COC(=O)C[C@H]1C[C@@H]2c3cc(NC(=O)Nc4ccc(OC)cc4)ccc3O[C@@H]2[C@@H](CO)O1	i
COc1ccc(CNC(=O)C[C@@H]2C[C@H]3c4cc(NC(=O)CC5CC5)ccc4O[C@H]3[C@H](CO)O2)cc1	i
CN1C(=O)c2cc(NC(=O)C3CC3)ccc2OC[C@@H]2O[C@@H](CC(=O)NCc3cccc(F)c3)CC[C@@H]21	i
C[C@H](CO)N1C[C@H](C)[C@H](CN(C)C(=O)Cc2ccccc2)OCCCC[C@H](C)Oc2ccc(NC(=O)C3CCCCC3)cc2C1=O	i
C[C@@H]1CCCCO[C@@H](CN(C)C(=O)Nc2cccc3ccccc23)[C@@H](C)CN([C@H](C)CO)C(=O)c2cc(NC(=O)CCC(F)(F)F)ccc2O1	i
O=C(C[C@H]1CC[C@@H]2[C@H](COC[C@H](O)CN2C(=O)Cc2ccccc2)O1)NC1Cc2ccccc2C1	i
C[C@@H]1CCCCO[C@H](CN(C)C(=O)Nc2ccc(C(F)(F)F)cc2)[C@H](C)CN([C@@H](C)CO)C(=O)c2cc(NC(=O)Nc3ccc(C(F)(F)F)cc3)ccc2O1	i
CCCN1C(=O)c2n[nH]c(C)c2C1c1ccc(Br)cc1 (configuration not stated)	i
Cc1noc(C)c1NC(=O)N(C)C[C@@H]1Oc2ccc(NC(=O)Cn3cnnn3)cc2CC(=O)N([C@@H](C)CO)C[C@H]1C	i
Cc1noc(C)c1NC(=O)N(C)C[C@@H]1OCCCC[C@@H](C)Oc2ccc(NS(=O)(=O)c3cn(C)cn3)cc2C(=O)N([C@H](C)CO)C[C@@H]1C	i
CNC(=O)C[C@@H]1CC[C@@H]2[C@H](COc3ccc(NC(=O)Nc4c(C)noc4C)cc3C(=O)N2C)O1	i
C[C@H]1CCCCO[C@H](CN(C)C(=O)NC2CCCCC2)[C@@H](C)CN([C@@H](C)CO)C(=O)c2cc(NS(C)(=O)=O)ccc2O1	i
CNC(=O)C[C@@H]1CC[C@H]2[C@H](COc3ccc(NC(=O)c4cccs4)cc3C(=O)N2C)O1	i
Clc1cccc(CN2CCN(c3ncc(Cc4ccccc4)cn3)CC2)c1Cl	i
NC(=O)C12NC(Cc3ccccc31)c1ccccc12 (configuration not stated)	i
CN1c2ccc(-c3cccc(F)c3)cc2[C@H]2[C@H](CCN2C(=O)C2CCCC2)[C@@H]1CO	i
C[C@H](CO)N1C[C@H](C)[C@H](CN(C)C(=O)Nc2cccc3ccccc23)Oc2ccc(NC(=O)Cn3cnnn3)cc2CC1=O	i
C[C@@H]1CN([C@H](C)CO)C(=O)c2cc(NC(=O)Cc3ccccc3)ccc2O[C@@H](C)CCCCO[C@H]1CN(C)S(=O)(=O)c1ccc(F)cc1	i
CNC(=O)C[C@@H]1CC[C@@H]2[C@H](COc3ccc(NC(=O)c4ccc(C(F)(F)F)cc4)cc3C(=O)N2C)O1	i
COc1cccc(CNC(=O)[C@H]2CCCN2C(=O)[C@H]2CCCN2S(=O)(=O)c2cccc(C)c2)c1	i
Cc1ccc(S(=O)(=O)Nc2ccc3c(c2)C(=O)N([C@@H](C)CO)C[C@H](C)[C@H](CN(C)C(=O)c2ccncc2)OCCCC[C@@H](C)O3)cc1	i
COC(=O)C1=C(C)N(Cc2ccccc2C(F)(F)F)C(=NCc2ccccc2)NC1CCc1ccccc1 (configuration not stated)	i
COc1ccc(NC(=O)N(C)C[C@@H]2Oc3ccc(NS(=O)(=O)c4cccs4)cc3CC(=O)N([C@@H](C)CO)C[C@@H]2C)cc1	i
C[C@@H]1CN([C@H](C)CO)C(=O)Cc2cc(NS(=O)(=O)c3ccccc3)ccc2O[C@H]1CN(C)S(=O)(=O)c1ccc(Cl)cc1	i
C[C@H](CO)N1C[C@H](C)[C@H](CN(C)Cc2ccc3c(c2)OCO3)OCCCC[C@H](C)Oc2ccc(NC(=O)Nc3cccc4ccccc34)cc2C1=O	i
Nc1[nH]c(C(=O)c2ccccc2)c(-c2ccc(Cl)cc2)c1C(=O)c1c[nH]c2ccc(Br)cc12	i
C[C@H](CO)N1C[C@H](C)[C@H](CN(C)C(=O)Cc2ccccn2)Oc2ncc(C#CC3CCCCC3)cc2C1=O	i

Ordered by SMILES length (smallest number first): part of the list above.
SMILES	FGF22 binding
NC(=O)C12NC(Cc3ccccc31)c1ccccc12 (configuration not stated)	i
Clc1cccc(CN2CCN(c3ncc(Cc4ccccc4)cn3)CC2)c1Cl	i
COC(=O)C1=C(C)N(Cc2ccccc2C(F)(F)F)C(=NCc2ccccc2)NC1CCc1ccccc1 (configuration not stated)	i
CN1c2ccc(-c3cccc(F)c3)cc2[C@H]2[C@H](CCN2C(=O)C2CCCC2)[C@@H]1CO	i
CNC(=O)C[C@@H]1CC[C@H]2[C@H](COc3ccc(NC(=O)c4cccs4)cc3C(=O)N2C)O1	i
Nc1[nH]c(C(=O)c2ccccc2)c(-c2ccc(Cl)cc2)c1C(=O)c1c[nH]c2ccc(Br)cc12	i
C[C@H](CO)N1C[C@H](C)[C@H](CN(C)C(=O)Cc2ccccn2)Oc2ncc(C#CC3CCCCC3)cc2C1=O	i
C[C@H](CO)N1C[C@H](C)[C@H](CN(C)C(=O)Nc2cccc3ccccc23)Oc2ccc(NC(=O)Cn3cnnn3)cc2CC1=O	i
C[C@@H]1CN([C@H](C)CO)C(=O)Cc2cc(NS(=O)(=O)c3ccccc3)ccc2O[C@H]1CN(C)S(=O)(=O)c1ccc(Cl)cc1	i
C[C@H](CO)N1C[C@H](C)[C@H](CN(C)Cc2ccc3c(c2)OCO3)OCCCC[C@H](C)Oc2ccc(NC(=O)Nc3cccc4ccccc34)cc2C1=O	i

Going on with the list:
SMILES	FGF22 binding
O=C(C[C@@H]1C=C[C@H](NS(=O)(=O)c2ccccc2)[C@@H](CO)O1)N1CCN(c2ccccc2)CC1	i
Cc1ccc(S(=O)(=O)Nc2cccc3c2O[C@@H](CN(C)C(=O)Nc2ccccc2)[C@H](C)CN([C@H](C)CO)C3=O)cc1	i
Cc1noc(C)c1NC(=O)N(C)C[C@@H]1OCCCC[C@@H](C)Oc2ccc(NC(=O)Nc3cccc4ccccc34)cc2C(=O)N([C@@H](C)CO)C[C@H]1C	i
COc1ccc(NC(=O)Nc2ccc3c(c2)CC(=O)N([C@H](C)CO)C[C@@H](C)[C@H](CN(C)Cc2ccc(Cl)c(Cl)c2)O3)cc1	i
C[C@@H]1CN([C@@H](C)CO)C(=O)c2cc(NC(=O)NC3CCCCC3)ccc2O[C@@H](C)CCCCO[C@H]1CN(C)C(=O)c1ccncc1	i
C[C@H](CO)N1C[C@H](C)[C@H](CN(C)S(=O)(=O)c2ccc(Cl)cc2)Oc2c(NS(=O)(=O)c3ccccc3)cccc2C1=O	i
C[C@H](CO)N1C[C@H](C)[C@@H](CN(C)C(=O)Nc2ccc3c(c2)OCO3)OCCCC[C@H](C)Oc2ccc(NS(=O)(=O)c3ccc(F)cc3)cc2C1=O	i
COCCNC(=O)C[C@@H]1CC[C@H]2[C@@H](COc3ccc(NC(C)=O)cc3C(=O)N2C)O1	i
COc1ccc(NC(=O)Nc2ccc3c(c2)C(=O)N([C@H](C)CO)C[C@H](C)[C@H](CN(C)S(=O)(=O)c2ccc(F)cc2)O3)cc1	i
COc1cccc(S(=O)(=O)N2CC[C@H]3[C@@H](CO)N(C)c4ccc(C#Cc5cccnc5)cc4[C@H]32)c1	i
CCCC(=O)Nc1ccc2c(c1)C(=O)N(C)[C@H]1CC[C@H](CC(=O)NCc3ccccc3F)O[C@H]1CO2	i
Cc1noc(C)c1NC(=O)N(C)C[C@H]1OCCCC[C@@H](C)Oc2ccc(NC(=O)Nc3ccccc3)cc2C(=O)N([C@H](C)CO)C[C@@H]1C	i
CN1CCN(C(=O)C[C@@H]2C[C@@H]3c4cc(NC(=O)Nc5ccccc5F)ccc4O[C@@H]3[C@H](CO)O2)CC1	i
CNC(=O)C[C@@H]1CC[C@H]2[C@H](COc3ccc(NS(=O)(=O)c4ccc(F)cc4)cc3C(=O)N2C)O1	i
Cc1ccc(S(=O)(=O)Nc2ccc3c(c2)C(=O)N([C@H](C)CO)C[C@H](C)[C@H](CN(C)C(=O)c2ccncc2)OCCCC[C@H](C)O3)cc1	i
O=C(C[C@@H]1CC[C@@H]2[C@H](COC[C@H](O)CN2C(=O)Nc2cc(Cl)cc(Cl)c2)O1)N1CCOCC1	i
COc1ccc(S(=O)(=O)Nc2cccc3c2O[C@@H](CN(C)S(=O)(=O)c2ccccc2)[C@@H](C)CN([C@H](C)CO)C3=O)cc1	i
CN1C(=O)c2cc(NC(=O)c3cccs3)ccc2OC[C@@H]2O[C@H](CC(=O)NCC3CC3)CC[C@@H]21	i
COc1ccc(NC(=O)Nc2ccc3c(c2)C(=O)N([C@@H](C)CO)C[C@H](C)[C@H](CN(C)S(=O)(=O)c2ccc(F)cc2)O3)cc1	i
C[C@@H]1CN([C@H](C)CO)C(=O)c2cccc(NC(=O)Nc3ccc(C(F)(F)F)cc3)c2O[C@H]1CN(C)C(=O)Nc1ccc2c(c1)OCO2	i
CCCNC(=O)C[C@@H]1C[C@@H]2c3cc(NS(=O)(=O)c4ccc(OC)cc4)ccc3O[C@@H]2[C@H](CO)O1	i
CCCN1[C@@H]2c3ccc(-c4ccc(C(=O)N(C)C)cc4)c(=O)n3C[C@@H]2[C@@H](CO)[C@@H]1C(=O)NCC	i
CS(=O)(=O)Nc1ccc2c(c1)[C@@H]1C[C@H](CC(=O)N3CCCCC3)O[C@H](CO)[C@@H]1O2	i
CNC(=O)C[C@H]1CC[C@@H]2[C@@H](COc3ccc(NC(=O)C4CC4)cc3C(=O)N2C)O1	i
CN1CCCCC(NC(=O)c2cccs2)C1=O (configuration not stated)	i
Cc1ccccc1S(=O)(=O)N1CC[C@H]2[C@H](CO)Nc3ccc(-c4cccc(C#N)c4)cc3[C@H]21	i
CCNC(=O)Nc1ccc2c(c1)C(=O)N(C)[C@@H]1CC[C@@H](CC(=O)NCC3CC3)O[C@H]1CO2	i
O=C(C[C@H]1CC[C@@H]2[C@H](COC[C@@H](O)CN2Cc2cccc(Cl)c2)O1)NCC1CCCCC1	i
CN1C(=O)c2cc(NC(=O)C3CCC3)ccc2OC[C@H]2O[C@H](CC(=O)NCC3CCCCC3)CC[C@@H]21	i
CC(C)C#Cc1ccc2c(c1)O[C@@H](CN(C)Cc1ccncc1)[C@@H](C)CN([C@@H](C)CO)S2(=O)=O	i
C[C@@H]1CN([C@H](C)CO)C(=O)Cc2cc(NC(=O)CCC(F)(F)F)ccc2O[C@@H]1CN(C)Cc1ccc(Oc2ccccc2)cc1	i
Cc1ccc(S(=O)(=O)N(C)C[C@@H]2OCCCC[C@H](C)Oc3ccc(NC(=O)C4CCCCC4)cc3C(=O)N([C@H](C)CO)C[C@H]2C)cc1	i
C[C@@H]1CCCCO[C@@H](CN(C)S(C)(=O)=O)[C@H](C)CN([C@@H](C)CO)C(=O)c2cc(NC(=O)c3ccncc3)ccc2O1	i
CN(C)C(=O)c1cccc(-c2ccc3c(c2)[C@@H]2[C@@H](CCN2C(=O)Cc2ccccn2)[C@H](CO)N3C)c1	i
O=C(c1ccccc1)N1CC[C@@H]2[C@@H](CO)Nc3ccc(C#Cc4cccc(F)c4)cc3[C@@H]21	i
C[C@@H]1CN([C@H](C)CO)C(=O)c2cc(-c3ccccc3)cnc2O[C@H]1CN(C)C(=O)Nc1ccccc1	i
CCOC(=O)CN1C(=O)[C@]2(OCCC=C[C@H]2C)c2c(Br)cccc21	i
